Screening results from PubChem BioAssay.
StopGo reporter = High Throughput Screening for Foot and Mouth Disease Virus Antivirals; Potency, µM (highest dose often 57.9 µM), for the others: top-dose signal change, negative = less light; hit rate 1.2% among 410,000; human cells with a luciferase reporter of 2A StopGo recoding; control for the full effect not named in the record; AID 1159524, 2015; active = well fitted falling curve with a large enough effect; inconclusive = small, poorly fitted or top-dose-only effect; inactive = no such curve, though single readings can be large or run the other way; tested in HEK293T cells; also: nearly all actives have a fitted effect of over 45% in size; luciferase light after 4 h
RE007 growth inh = qHTS Assay for Inhibitors of the HIV-1 protein Vpr | hit rate 0.21% among 360,000 | S. pombe RE007 Vpr strain, BacTiter-Glo ATP luminescence, 24 h; control for the full effect not named in the record | AID 651644, 2012 | Potency, µM (highest dose often 92.2 µM), for inactives: at the highest dose activity change, negative = less growth; active = well fitted falling curve with a large enough effect; inconclusive = small, poorly fitted or top-dose-only effect; inactive = no such curve, though single readings can be large or run the other way;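 also: nearly all actives have a fitted effect of over 50% in size; the assay follows cell death caused by Vpr and the record does not say whether a fall means rescue or toxicity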
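Fission yeast strain RE007, carrying one chromosomally integrated HIV-1 vpr copy, was seeded at OD 0.01 in PMG+AL medium with 23 nL pinned compound. After 24 h at 30 °C and 99% humidity, viability was read by BacTiter-Glo luminescence.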
* marks the source's active call; other numbers are inactive results; ? = inconclusive; [ ] = another dose, or the depositor's remark. % is scaled to controls: 0 for no effect and ±100 for the full control effect; potency is read from the fitted curve at half-maximal effect. These rows are one share of the data. The share of hits here may be higher or lower than overall.

SMILES | StopGo reporter | RE007 growth inh
CCN1C[C@@H]2[C@@H]3C(=O)N(Cc4ccccc4)C(=O)[C@@H]3[C@](CC)(C1=O)N2C(=O)c1ccc(C(C)(C)C)cc1 | -19.6% | 10.9%
COc1ccc(Cl)cc1C(=O)NNC(=O)CCNC(=O)c1ccccc1 | ? | 17.5%
CCOC(=O)[C@]12CCCC=C1N(CCC1=CCCCC1)C(=O)[C@H](CC(=O)N1CCCC1)C2 | -21.7% | -23.2%
CC1=C(C(=O)N(C)C)CC(CC(=O)NCCN2CCOCC2)C(=O)N1Cc1ccc(F)cc1 (configuration not stated) | -18.2% | -11.9%
CNC(=O)NC(=O)CSc1ccc(S(=O)(=O)N2CCOCC2)cn1 | 9.6% | 2.6%
CC(NC(=O)Cn1cc([N+](=O)[O-])cn1)c1ccc(C(C)(C)C)cc1 (configuration not stated) | -27.1% | 13.2%
COc1ccc(-c2ccc(CN3C(C)C(=O)N(Cc4cn(CCC5OCCO5)nn4)CCS3(=O)=O)cc2)cc1 (configuration not stated) | ? | -9.5%
Cc1noc(C)c1NC(=O)N(C)C[C@@H]1Oc2cc(Br)ccc2S(=O)(=O)N([C@@H](C)CO)C[C@H]1C | -7.2% | ?
Fc1ccccc1CN1Cc2ccccc2-n2nncc2C1 | ? | 3.0%
COc1cccc(-c2ccc3c(c2)N(Cc2cccc(F)c2)C(=O)C(C)S3)c1 (configuration not stated) | ? | 5.4%
C[C@@H]1CN([C@@H](C)CO)C(=O)c2cc(-c3cccnc3)cnc2O[C@H]1CN(C)C(=O)c1cccc(F)c1 | 0.0% | -0.9%
COCc1c(C(=O)Nc2nnc(C3CC3)s2)oc2ccccc12 | -6.2% | -2.8%
COc1cccc(C(O)c2nc(-c3cnn(C)c3)cs2)c1 (configuration not stated) | -22.7% | 3.5%
COCCNC(=O)C1(C)CCN(C(=O)C2(c3ccc(Cl)cc3)CCCC2)C1 (configuration not stated) | -25.2% | -9.5%
O=C1Nc2ccccc2N=C(c2ccc3c(c2)OCO3)C1N(C(=O)c1ccc2ccccc2c1)C1CC1 (configuration not stated) | 26.3% | 4.3%
c1ccc2[nH]c(CCN3CCCCC3)nc2c1 | 26.7% | 10.6%
CSc1ccccc1C(=O)N1CCc2ccc(NC(=O)c3ccccn3)cc2C1 | -28.7% | ?
CC1=C(C(=O)N(C(C)C)C(C)C)CC(CC(=O)NC2CCCC2)C(=O)N1Cc1ccccc1 (configuration not stated) | 12.3% | -8.4%
CC(=O)Nc1ccc(NC(=O)CSc2nnc(NC(=O)c3ccccc3F)s2)cc1 | 0.0% | -11.4%
NC(=Nc1c([N+](=O)[O-])cnc2ccccc12)N1CCOCC1 | -7.0% | -16.7%[18.4 µM]
O=C(/C=C/[C@H]1O[C@@H](n2cnc3c(NC(=O)c4ccccc4)ncnc32)[C@H](O)[C@@H]1O)NCC1CCCO1 (some centres not stated) | 3.4% | 4.6%
COc1ccc(NC(=O)N(C)C[C@@H]2OCc3cn(nn3)CCCC(=O)N([C@H](C)CO)C[C@H]2C)cc1 | -13.7% | -5.3%
CCC(c1ccccc1)c1noc(CCN(CC)CC)n1 (configuration not stated) | 0.0% | 1.3%
CC(=O)N1C[C@H]2CON(C)[C@H]2C[C@H]1c1cccc(-c2ccccc2C)c1 | -23.6% | -9.5%
CC1(C(=O)NS(=O)(=O)C2CC2)CCN(C(=O)COCc2ccccc2)C1 (configuration not stated) | -16.4% | 4.8%
N#CCCC1(CCC#N)c2ccccc2C(=O)c2ccccc21 | 6.5% | 2.6%[18.4 µM]
OC(c1ccccc1)c1nc(-c2ccc(Cl)cc2)cs1 (configuration not stated) | 18.7% | 2.7%[18.4 µM]
O=C(CC1CC1)Nc1ccc2c(c1)[C@H]1C[C@H](CC(=O)N3CCc4ccccc4C3)O[C@@H](CO)[C@H]1O2 | 17.7% | -5.4%
Clc1cccc(Cc2c(C3CCCCC3)nc3ccc(Cl)cn23)c1 | -23.7% | -24.8%
COc1ccc(NC(=S)N(CCc2ccncc2)C(C)C)cc1Cl | 4.7% | 5.1%
COc1ccccc1Cn1c(C)c(C(=O)NCCC#N)sc1=O | -3.3% | -3.0%[18.4 µM]
CN1CCN([C@@H]2CS(=O)(=O)N[C@H]2COCc2ccccc2)CC1 | -4.7% | 9.1%
CC(C)c1cc(Cn2c3ccccc3c(=O)n2C(C)Cn2cc(CCc3ccccc3)nn2)on1 (configuration not stated) | -10.8% | 1.3%
COC(=O)c1c(NC(=O)c2ccc(C(=O)c3ccccc3)cc2)sc2c1CC(C)(C)NC2(C)C | -13.1% | -18.4%
COc1ccc(-c2cnc3c(NC(C)=O)cc(-c4ccccc4CN(C)C)cn23)cc1OC | -0.9% | -18.5%
CCCNC(=O)N[C@H]1C=C[C@H](CC(=O)OC)O[C@@H]1CO | -3.0% | 2.5%
CC(C)C[C@H]1CNC(=O)C(=O)N1CC1CCN(CC2CCC(C(C)(C)C)CC2)CC1 (some centres not stated) | -23.1% | -20.4%
NC(Cc1ccc(C(F)(F)F)cc1)c1csc(Nc2ccc(S(N)(=O)=O)cc2)n1 (configuration not stated) | -14.8% | -17.7%[18.4 µM]
CC(=O)Nc1cnc(-c2ccc3c(c2)OCO3)cn1 | 12.5% | 6.2%[18.4 µM]
CCCn1c(=S)[nH]c2cc(C(=O)NCc3ccccc3OC)ccc2c1=O | ? | 7.8%
COc1cc(CCN(C(=O)c2cccc(S(C)(=O)=O)c2)C(CCc2ccccc2)c2nc3ccccc3[nH]2)cc(OC)c1 (configuration not stated) | -14.5% | -2.8%
COc1ccc(NC(=S)N2CCC3CC2c2cc(-c4ccc5c(c4)OCO5)ccc23)c(OC)c1 (configuration not stated) | -2.3% | 7.0%
OC(c1ccc(F)c(F)c1)c1nc(-c2ccc3c(c2)OCO3)cs1 (configuration not stated) | -4.8% | ?
Clc1cccc(CNc2ccn3nc(-c4cccc(Cl)c4)cc3n2)c1 | 4.9% | ?
CCOC(=O)C1=CCC(c2ccccc2)N(S(=O)(=O)c2ccccc2C)C1 (configuration not stated) | 6.0% | 4.1%
COCOc1cccc(CN2CCC(C)(Oc3ccc(C(C)=O)cc3)C2)c1 (configuration not stated) | -8.3% | 7.7%[18.4 µM]
COc1ccc(-c2csc(C(C)(NC(C)=O)c3ccccc3)n2)cn1 (configuration not stated) | -9.9% | -5.6%
COc1ccc(C(C(=O)Nc2ccc3c(c2)OCCO3)n2c(=O)c(-c3ccco3)nc3ccccc32)cc1 (configuration not stated) | 25.6% | -5.8%
CCc1nc2ccc(C(=O)N3CCCC(C(N)=O)C3)cn2c1N(C=O)CC (configuration not stated) | -11.6% | 6.8%
COc1ccc([C@H]2N[C@]3(CCCN(Cc4ccccc4)C3=O)[C@H]3C(=O)N(Cc4ccccc4)C(=O)[C@@H]23)cc1 | -9.1% | 0.3%
CCOC(=O)[C@]12Cc3ccc(C)cc3[C@H]1N(C1CCCCC1)C(=O)c1ccccc12 | 6.31µM* | -2.3%
COCCN(Cc1cc2cc(C)ccc2n2nnnc12)C(=S)Nc1ccc(OC)cc1 | -3.9% | -11.5%
CC(C)Nc1ncnc2c1ncn2[C@H]1CN(Cc2ccncc2)C[C@@H](CO)O1 | -18.6% | 1.7%[18.4 µM]
COc1ccc(CC(N)c2csc(NC(=O)Cc3ccccc3)n2)cc1 (configuration not stated) | -7.1% | -1.1%
COc1cccc(CNc2nc(NC(C)C)nc3ccsc23)c1OC | ? | -21.7%
COc1ccc(-c2ccc(CN3C(C)C(=O)N(Cc4cn(CC5CCCCC5)nn4)CCS3(=O)=O)cc2)cc1 (configuration not stated) | -11.8% | 14.1%
COc1cc2ccnc(C=NO)c2cc1OC | -27.6% | -4.3%
Cc1cc(F)ccc1C(O)c1ncc(-c2cccc(OCc3ccccc3)c2)[nH]1 (configuration not stated) | 6.6% | 0.8%
C#CCOCCOCCOCCNc1nc(N2CCN(C(=O)Cn3cc(CCO)nn3)CC2)nc(N2CCN(C(=O)Cn3cc(CCO)nn3)CC2)n1 | -21.7% | -0.4%
O=C1NC[C@H](Cc2ccccc2)N(C[C@@H]2CCCN2C[C@H](Cc2ccccc2)N2C[C@H](Cc3ccc(O)cc3)N(CCc3ccccc3)C(=O)C2=O)C1=O | -17.8% | -1.5%

(listing goes on)
SMILES | StopGo reporter | RE007 growth inh
COc1ccc(S(=O)(=O)N2CCC[C@H]2C(=O)N2CCC[C@H]2C(=O)N(C)Cc2ccccc2)cc1C | -4.3% | 3.4%
COc1ccc(N2C(=O)c3ccccc3NC(=O)C2C(=O)NCC(C)C)cc1 (configuration not stated) | -9.9% | 1.8%
CC1CCN(C(=O)c2[nH]cnc2C(=O)Nc2ccccc2F)CC1 | 0.0% | 6.2%
CC(C)=CCc1c(O)cc(O)c2c1OC(c1ccc(O)cc1)CC2=O (configuration not stated) | -14.9% | 1.9%
COc1ccc(CC(N)c2csc(Nc3cnccn3)n2)cc1 (configuration not stated) | -16.2% | 6.4%
CC1(c2nnnn2-c2ccc3c(c2)OCCO3)CCC(=O)N1CCc1ccc(O)cc1 (configuration not stated) | -17.1% | 3.7%
CCCS(=O)(=O)NC(=O)C1(C)CCCN(C(=O)c2ccc(F)cc2Cl)C1 (configuration not stated) | 4.7% | -2.1%
CCOC(=O)C(=O)N(C)c1c(CC)nc2c(OCc3cc(Cl)cc(Cl)c3)cccn12 | -21.8% | -3.6%
C[C@@H]1CN([C@@H](C)CO)C(=O)CCCn2nncc2CO[C@@H]1CN(C)C(=O)c1ccc2ccn(C)c2c1 | -20.3% | -4.3%
COc1ccc(Nc2c(-c3cccc(OC)c3)nc3nc(C)cc(C)n23)cc1 | -7.2% | -4.4%
C=CCn1c(O)c(N=Nc2ccccc2[N+](=O)[O-])c2ccccc21 | 20.3% | 3.5%
O=C1c2ccccc2S(=O)(=O)c2cc(C(=O)N3CCCC3)ccc21 | -11.3% | 13.0%
COC(=O)[C@@]12C[C@@H](CC(=O)NCCC(C)C)C(=O)N(Cc3ccco3)C1=CCC(C)(C)C2 | 17.7% | -0.8%
CN(C)C1CN(Cc2cn(Cc3ccccc3)nn2)S(=O)(=O)C1 (configuration not stated) | -13.3% | -0.7%
CCCS(=O)(=O)NC(=O)C1(C)CCN(C(=O)c2c(F)ccc(C)c2F)C1 (configuration not stated) | -15.4% | -2.5%

Seven compounds already listed, sorted by number of heavy atoms, smallest number first:
SMILES | StopGo reporter | RE007 growth inh
CCCNC(=O)N[C@H]1C=C[C@H](CC(=O)OC)O[C@@H]1CO | -3.0% | 2.5%
CCOC(=O)C1=CCC(c2ccccc2)N(S(=O)(=O)c2ccccc2C)C1 (configuration not stated) | 6.0% | 4.1%
CSc1ccccc1C(=O)N1CCc2ccc(NC(=O)c3ccccn3)cc2C1 | -28.7% | ?
CC(=O)Nc1ccc(NC(=O)CSc2nnc(NC(=O)c3ccccc3F)s2)cc1 | 0.0% | -11.4%
CC1(c2nnnn2-c2ccc3c(c2)OCCO3)CCC(=O)N1CCc1ccc(O)cc1 (configuration not stated) | -17.1% | 3.7%
CCOC(=O)[C@]12CCCC=C1N(CCC1=CCCCC1)C(=O)[C@H](CC(=O)N1CCCC1)C2 | -21.7% | -23.2%
COc1ccc(-c2ccc(CN3C(C)C(=O)N(Cc4cn(CCC5OCCO5)nn4)CCS3(=O)=O)cc2)cc1 (configuration not stated) | ? | -9.5%

(listing goes on)
SMILES | StopGo reporter | RE007 growth inh
Cc1ccc(C)c(C(O)c2ncc(-c3ccc(F)cc3)[nH]2)c1 (configuration not stated) | 10.7% | ?
CN1C(=O)[C@H]2[C@@H](c3ccccc3)N[C@]3(CCCN(Cc4ccc(F)cc4)C3=O)[C@H]2C1=O | -3.7% | 0.3%
COC(=O)C1=CN(c2ccc3c(c2)OCO3)C(N)=C(C#N)C1c1ccccc1 (configuration not stated) | 7.0% | 0.9%
CC(=O)NCCNC(=O)C1(C)Cc2c(-c3ccc(NC(C)=O)cc3)ccnc2O1 (configuration not stated) | -15.6% | 1.6%
CCN(CC)C(=O)C1=C(C)N(Cc2ccc(F)cc2)C(=O)C(CC(=O)NCc2cccs2)C1 (configuration not stated) | -20.1% | -17.5%
C#CCNC(=O)c1cc2c(Br)ccc(Br)c2nc1N | -5.2% | 1.7%
Cc1ccc(NC(=O)CN(C)CC(=O)Nc2ccc3c(c2)OCO3)cc1 | -15.9% | -12.1%
CCc1cc(-c2nnn(-c3cc(C(C)C)ccc3C)c2CC)ccc1-c1cn(CCc2c[nH]c3ccccc23)nn1 | ? | 1.9%
CC(=O)NC(c1ccc(N(C)C)cc1)c1cc(Cl)c2cccnc2c1O (configuration not stated) | -24.5% | 8.5%
CC(=O)c1cccc(-c2ccnc3c2CC(C(=O)NCCc2ccccc2)O3)c1 (configuration not stated) | 1.6% | 4.3%[18.4 µM]
CCCc1c(C(=O)N/N=C/c2ccc(-c3ccccc3)cc2)nnn1-c1nonc1N | -14.4% | -11.1%
COc1cc2ccc(NC(C)=O)cc2cc1OC | -2.4% | 15.8%
Nc1nonc1-n1nnc(C(=O)N/N=C/c2ccco2)c1CSc1ccc(Cl)cc1 | 0.0% | -15.6%
Cn1cnc(S(=O)(=O)N2CCCCC2c2cc(C(=O)Nc3cccc(C#N)c3)no2)c1 (configuration not stated) | -22.9% | 13.8%
COc1ccc(C2=CC(=O)C[C@H](COCc3ccccc3)N(C(=O)OC(C)(C)C)O2)cc1 | -16.0% | 2.0%
CCCCNC(=O)C1(C)CCN1C(=O)Cc1cccc2ccccc12 (configuration not stated) | -8.1% | 6.7%[18.4 µM]
Cc1cn(CC(=O)NCCCc2ccccc2)c(=O)[nH]c1=O | -15.4% | 0.8%
